Rango-impB inh – Rango-importin beta binding inhibition; Rango CFP/YFP FRET sensor + importin beta, 45 min; Potency, µM (top dose mostly 92.2 µM), inactives show at the top dose inhibition of complex formation; 0.031% of 340,000 active; active = rising FRET ratio curve, often small or poorly fitted; inconclusive = mostly compound fluorescence or quenching in the first reads; inactive = flat curves in all reads;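 further: potency means the concentration at half of the fitted maximal effect; 0% = DMSO wells and 100% = buffer wells lacking importin beta; nearly all actives have a fitted effect of over 15% in size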
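FRET biosensor Rango (snurportin 1 IBB between N-terminal EYFP and C-terminal Cerulean), 50 nM in PBS/1 mM DTT/0.02% Tween-20/0.1% BSA, preincubated 5 min RT with compound; 0.125 microM importin beta added, 45 min RT, CFP/YFP FRET ratio read.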
GLA inh pH 4.5 – alpha-galactosidase A (human) inhibition, pH 4.5. P06280. purified enzyme, 4-MU-alpha-Gal fluorescence, pH 4.5. activity change, negative = inhibition, % at 105 µM. 230,000 tested, under 10 active; inconclusive = small, poorly fitted or top-dose-only inhibition, or a rising curve; inactive = flat fitted curve, though single readings scatter; no compound was filed as active;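 further: 0% = full activity with enzyme and -100% = basal without enzyme; dose as in the result columns while the protocol names 77 µM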
Target sequence (P06280 whole entry, looked up): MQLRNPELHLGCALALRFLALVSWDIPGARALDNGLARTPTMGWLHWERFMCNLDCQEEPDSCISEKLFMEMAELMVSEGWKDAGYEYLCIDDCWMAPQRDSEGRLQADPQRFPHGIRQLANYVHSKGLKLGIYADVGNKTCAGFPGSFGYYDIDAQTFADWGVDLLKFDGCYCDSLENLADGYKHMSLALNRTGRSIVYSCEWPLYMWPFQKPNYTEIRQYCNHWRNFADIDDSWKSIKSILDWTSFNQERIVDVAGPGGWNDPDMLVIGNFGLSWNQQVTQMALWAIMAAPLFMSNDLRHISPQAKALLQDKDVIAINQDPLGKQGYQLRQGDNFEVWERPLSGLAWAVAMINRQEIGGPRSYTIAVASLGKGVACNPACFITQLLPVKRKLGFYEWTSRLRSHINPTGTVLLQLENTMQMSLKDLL
miR-21 reporter – raises the signal of a miR-21 reporter; HeLa miR-21 FLuc reporter, luciferase, 48 h; Potency, µM (highest dose often 38.3 µM), inactives show at the top dose reporter change, positive = more light; 340,000 tested, under 10 active; active = well fitted rising curve with a large enough effect; inconclusive = small, poorly fitted or top-dose-only effect; inactive = no such curve, though single readings can be large or run the other way;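 further: % of control where 0% means no effect; miR-21 action dims this reporter so a rising signal means less miR-21 action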
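HeLa miR-21-FLuc reporter line, endogenous miR-21; 2000 cells/well in DMEM/10% FBS; compound titration up to ~40uM final, 48 h, 37 degree Celsius; luciferase detection reagent, 15 min lysis, CCD luminescence.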
Rango release inh – inhibition of RanGTP-driven Rango-importin beta dissociation; Biochemical FRET Rango-importin beta, RanGTP-induced dissociation; AID 540253; Potency, µM (top dose mostly 46.1 µM), for inactives: at the top dose activity change, negative = inhibition; O95149+P62826; 0.071% of 340,000 active; active means falling FRET ratio curve, often poorly fitted, with flat reads before Ran was added; inconclusive means other falling curves, or compound fluorescence or quenching; inactive means flat or rising ratio curve;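 further: potency means the concentration at half of the fitted maximal effect; % of control where 0% means no effect; nearly all actives have a fitted effect of over 45% in size; -100% = wells without RanGTP and RCC1; the record marks most hits as doubtful in a second field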
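FRET read at 45 min, room temperature: inhibitors block the CFP/YFP signal rise when RanGTP (0.6 uM Ran, 2 mM GTP, 0.2 uM RCC1) frees Rango (0.1 uM) from importin beta (0.25 uM). Pre-read after 5 min compound exposure flags interference.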
Active calls of the source: *; ? = inconclusive; nt = no result given; & = joins results of further samples. An excerpt, so the mix of outcomes need not match the whole.

structure,Rango-impB inh,GLA inh pH 4.5,miR-21 reporter,Rango release inh
CC(=O)Nc1ccc(S(=O)(=O)N=S(C)C)cc1,-2.8%,-1&-11,0%&-1%,-3%
O=C(Nc1ccccn1)c1ccc2c(=O)n3c(nc2c1)CCCCC3,0.2%,nt,nt,-6%
CC(Sc1nnc(C2CC2)n1C1CC1)C(=O)N(C)Cc1cccc(F)c1 (centres undefined),-0.4%,nt,nt,4%
COc1ccc(-c2ccc(-c3noc(-c4ccco4)n3)c(OC)n2)cc1,?,6,-45%,?
CC1CN(S(=O)(=O)c2ccc(C(=O)OCc3ccc(C#N)cc3)cc2)CC(C)O1 (centres undefined),3.4%,nt,nt,5%
COc1ccc(C2C3=C(CC(C)(C)CC3=O)Oc3ncn(Cc4ccco4)c(=N)c32)cc1 (centres undefined),-3.4%,0,-11%,8%
C#CCOCCOCCOCCNc1nc(N2CCN(C(=O)[C@H](CCCCN)n3cc(C(N)COC(=O)C(F)(F)F)nn3)CC2)nc(N2CCN(C(=O)[C@H](CCCCN)n3cc(C(N)CC(C)C)nn3)CC2)n1 (some centres undefined),nt,0,1%,nt
O=c1[nH]c(SCc2ccccc2)nnc1-c1ccccc1,-0.2%,2,-19%,3%
C=CCn1c(C)cc(C(=O)CSc2ccc(NC(C)=O)cc2)c1C,0.5%,-5,-23%,-14%
CCCc1[nH]nc2c1C1(C(=O)N(CC)c3ccccc31)C(C#N)=C(N)O2 (centres undefined),7.7%,3,-4%,4%
CCn1c(N)c(C(=O)NCCCOC)sc1=S,-1.6%,-5,-11%,-3%
Cc1c(O)cc2n(c1=O)-c1ccc(Cl)cc1C2(C)C,-0.1%,1,-7%,22%
NC(=O)c1ccc(-n2nnnc2SCC(=O)Nc2ccc(N3CCOCC3)c(Cl)c2)cc1,0.3%,-3,-3%,1%
COc1ccc(CNC(=O)CSc2nnc(C(F)(F)F)n2C)cc1,0.9%,2,2%,3%
S=C1CCSc2ccc(Cl)cc2N1,3.8%,-4,9%,8%
NC(=O)Nc1ccc(C(=O)OCC(=O)N2CCc3ccccc3C2)cc1,0.4%,nt,nt,2%
CCc1ccccc1NS(=O)(=O)c1ccc(SC)cc1,0.2%,-2,-1%,0%
COc1ccc(N(C)S(=O)(=O)c2cccc(C(=O)NC3CCCCCC3)c2)cc1,-3.8%,-5,1%,10%
COc1cccc(C2CC(c3ccc(C)cc3)n3ncnc3N2)c1 (centres undefined),1.2%,-4,-6%,-10%
O=C(CCCC(=O)N(CC(=O)NC1CCCC1)Cc1ccc2c(c1)OCO2)Nc1ccccn1,-2.2%,12,-4%,2%
Cc1ccccc1Nc1nc(N)nc(CSc2nnc(-c3ccccc3)n2C)n1,4.1%,-5,-12%,-14%
C[C@@H]1CN([C@H](C)CO)C(=O)Cc2cc(NS(=O)(=O)c3cn(C)cn3)ccc2O[C@H]1CN(C)S(=O)(=O)c1ccc(Cl)cc1,0.2%,nt,nt,4%
CCOC(=O)C1CCN(C(=O)Nc2ccc3nccnc3c2)CC1,-0.1%,-2,-15%,-5%
O=C(c1ccco1)N1N=C(c2ccc(Br)cc2)CC1(O)C(F)(F)F (centres undefined),0.2%,0,-3%,-4%
CNc1nc(OCC(F)(F)F)nc(OCC(F)(F)F)n1,0.2%,nt,nt,-3%
O=C(O)c1cc(S(=O)(=O)N2CCN(C(=O)c3ccco3)CC2)c(Cl)cc1Cl,0.8%,nt,-4%,-4%
[O-][n+]1c2c(nn1-c1ccccc1Cl)-c1nonc1CC2,-5.5%,11,6%,0%
Cc1cnc(C(=O)OC(C(=O)Nc2cc(C(F)(F)F)ccc2Cl)c2ccccc2)cn1 (centres undefined),-0.3%,nt,-4%,21%
Cc1cc(C)cc(C(=O)NCCn2cc(SCC(=O)N3CCOCC3)c3ccccc32)c1,-0.5%,3,0%,-6%
O=C(N/N=C/c1ccc(OCc2ccc(F)cc2)cc1)c1ccccc1,-0.2%,8,-19%,3%
CC(C)NS(=O)(=O)c1ccc2c(c1)NCC2,0.2%,5,-3%,-3%
CC(C)NC(=O)CSc1ccccc1C(=O)N1CCN(S(=O)(=O)Cc2ccccc2)CC1,5.1%,nt,nt,-12%
CC(C)COc1ccc(C(=O)OCC(=O)NCc2cccs2)cc1,-1.8%,nt,nt,-10%
O=C(CSc1ccccc1)N1CCCC(Nc2ccccc2)C1 (centres undefined),2.6%,nt,-2%,-4%
COc1ccccc1/C=C\C=N\n1c(-c2ccc(Cl)cc2)n[nH]c1=S,-0.4%,-8,-4%,2%
CC1(C)CNC(=O)CC(C)(C)N1,0.9%,-14,-1%,7%
CCC(C)c1ccccc1OCCn1ccnc1 (centres undefined),4.6%,0,0%,8%
COc1ccc(N2CCN(C(=O)c3cc(C)on3)CC2)cc1,-6.5%,nt,-4%,0%
CN(C)S(=O)(=O)c1ccc(C(=O)OCC(=O)c2ccc3c(c2)NC(=O)CO3)cc1,0.0%,9,0%,23%
COc1ccccc1N(CC(=O)Nc1ccc(Cc2ccncc2)cc1)S(=O)(=O)c1ccccc1,-2.7%,nt,16%,0%
CCN(C(=O)CSc1nnc(C)c(=O)[nH]1)c1cccc2ccccc12,4.1%,nt,nt,2%
CCOC(=O)c1sc(=S)n(-c2ccc(C)cc2)c1SC,2.4%,-8,0%,13%
COc1cc(/C=N/NC(=O)c2cc3ccccc3cc2O)ccc1OCCN1CCCCC1,?,-23,4%,?
Cc1nnc(SCC(=O)Nc2ccccc2F)n1Cc1ccco1,0.4%,9,-3%,4%
COc1ccc(-c2nnn(CC(=O)N(CC(=O)NC3CCCC3)c3ccccc3)n2)cc1OC,3.6%,3,-11%,-7%

Grouped by structure: the compounds so far with a cyano group.
structure,Rango-impB inh,GLA inh pH 4.5,miR-21 reporter,Rango release inh
CC1CN(S(=O)(=O)c2ccc(C(=O)OCc3ccc(C#N)cc3)cc2)CC(C)O1 (centres undefined),3.4%,nt,nt,5%
CCCc1[nH]nc2c1C1(C(=O)N(CC)c3ccccc31)C(C#N)=C(N)O2 (centres undefined),7.7%,3,-4%,4%

(cont.)
structure,Rango-impB inh,GLA inh pH 4.5,miR-21 reporter,Rango release inh
Cc1scc(-c2n[nH]c(=S)n2C(C)c2ccccc2)c1C (centres undefined),-1.1%,4,-3%,-10%
O=C(Nc1ccccc1)OCC1CCCN2CCCCC12 (centres undefined),8.5%,5,-9%,4%
Cc1ccccc1C(=O)NN1C(=O)CSC1=S,?,-5,-11%,3%
C/C(=N\Nc1ccc(Cl)c(C(=O)O)c1)c1cccc([N+](=O)[O-])c1,9.6%,-4,-82%,-1%
COc1ccc2oc(=O)c(C(=O)C[n+]3cccc(C)c3)cc2c1,-0.4%,2,-1%,-13%
COC(=O)Nc1ccc(S(=O)(=O)N2CCCc3ccccc32)cc1,-3.4%,-7,7%,6%
Cc1nn(CC(=O)NC(=O)NC2CCCCC2C)c(=O)c(C#N)c1C (centres undefined),-2.1%,nt,nt,?
Cc1ccc(S(=O)(=O)N2CCN(S(=O)(=O)c3c(C)n[nH]c3C)CC2)cc1C,7.6%,nt,nt,14%
Cc1ccc(-c2nc(COC(=O)C3=NN(c4ccccc4)C(=O)CC3)cs2)cc1,-0.3%,nt,nt,18%
O=C1C(Cc2ccc3[nH]ccc3c2)NC(=S)N1c1ccccc1 (centres undefined),?,5,1%,-13%
O=C(Nc1ccc2ncccc2c1)c1cccc(Br)c1,3.9%,nt,-60%,-18%
O=C(CC1=NCCNC(c2ccccc2)C1)c1ccccc1O (centres undefined),1.8%,-7,-51%,4%
CCc1sc(C(=O)N2CCN(CC(=O)Nc3cccc(F)c3)CC2)cc1C,4.5%,nt,nt,-1%
CC(C)OC(=O)c1ccc(NCc2cc(O)ccc2O)cc1,-0.8%,nt,nt,-5%
CCOc1ccccc1OCCCC(=O)Nc1cccc(-n2cnnn2)c1C,0.2%,nt,nt,-12%
CNC(=S)NCCc1ccc(OC)c(OC)c1,1.1%,10,-3%,0%
CC(C)OCCCNC(=O)c1ccc(N(C)S(C)(=O)=O)cc1,2.2%,-12,-11%,6%
Cc1nc2ccc(C(=O)O)cc2c2c1CC(C)S2 (centres undefined),1.9%,4,-5%,9%
Cc1nc2c(c(C)nn2-c2ccccc2)c(C)c1CCC(=O)NCCCOC(C)C,1.7%,nt,-6%,7%
CCOC(=O)C1(c2csc(N)n2)COC(=O)C1 (centres undefined),4.8%,2,-3%,32%
COC(=O)CC1C(=O)NCCN1C(=S)NC(=O)c1sc2ccccc2c1Cl (centres undefined),-3.0%,-8,-9%,4%
Cc1cc2nc(C3CCN(C(=S)NCCCOC(C)C)CC3)[nH]c2cc1C,3.3%,8,-1%,35%
Cc1nn(C)c(C)c1CNC(=O)c1cc2n(n1)C(C(F)(F)F)CC(c1cccs1)N2 (centres undefined),4.0%,3,10%,0%
O=C1Nc2ccc(S(=O)(=O)NCc3ccccn3)c3cccc1c23,?,6,-3%,7.3µM*
COc1cccc(N2CCN(C(=O)c3cc(C)oc3C)CC2)c1,-3.8%,nt,nt,-2%
COc1ccc(CNC(=O)COc2ccc(C)nc2[N+](=O)[O-])cc1,-0.3%,-18,-17%,-9%
COc1cccc(C2=NCCc3cc4c(cc32)OCO4)c1OC,?,-9,-7%,-20%
Cn1c(C(=O)NCCCN2CCCC2=O)cc2c(=O)n(C)c3ccccc3c21,-4.3%,1,1%,1%
CCN(CC(=O)NCc1ccc(F)cc1)CC(=O)NC1CCCC1,-5.1%,nt,-3%,-9%
Cn1c(-c2ccc3c(c2)OCO3)cnc1N,1.3%,-6,-20%,-15%
Cn1nc(C(C)(C)C)c([N+](=O)[O-])c1C(=O)N1CCOCC1,-1.6%,nt,1%,-13%
O=C(CSc1nccc(-c2cccs2)n1)Nc1ccc(Cl)cc1,-4.0%,-9,-5%,8%
OCc1nc2ccccc2n1CCCCOc1ccccc1,4.9%,nt,nt,-11%
Cc1ccc(C)c(NC(=O)COc2cccc3c2CCN(Cc2ccccc2C)C3=O)c1,-0.4%,5,-11%,13%
Cc1ccc(S(=O)(=O)N(C)C)cc1NC(=O)COC(=O)CCC1CCCC1,-1.3%,nt,nt,13%
Cc1cc(NC(=O)C2CC(=O)N(c3cccc(Cl)c3)C2)no1 (centres undefined),-2.9%,nt,-1%,-8%
O=C(NC1CCCCC1)C(=S)N1CCOCC1,0.7%,4,-2%,14%
C/C=C(/C)C(=O)O[C@@H]1[C@H](OC(=O)C=C(C)C)c2c(ccc3ccc(=O)oc23)OC1(C)C,2.2%,0,-13%,12%
CC1CCCCC1N1CN=C(Nc2nc3ccccc3s2)NC1 (centres undefined),?,-18,-6%,-3%
O=C(CN1C(=O)c2cccc3cccc(c23)C1=O)NCCCO,2.1%,nt,-1%,-6%
CCOC(=O)N1CCN(S(=O)(=O)c2ccc(F)c(C(=O)Nc3cccc(Cl)c3C)c2)CC1,-6.6%,3,2%,4%
O=C(O)c1nccnc1C(=O)Nc1ccccc1N1CCOCC1,0.2%,-4,-1%,0%
CCOc1ccccc1NC(=O)C(NCC1CCCCC1)c1ccccc1 (centres undefined),-2.5%,0,3%,15%
COc1ccc2sc(NC(=O)CC(C)C)nc2c1,-0.1%,0,-35%,17%
COc1ccc(NC(=O)CSCC(=O)N2CCN(C(=O)c3ccco3)CC2)cc1,-0.2%,nt,nt,-10%
O=C(CN1CCCCC1)NC1CCc2cc3c(cc21)CCC3 (centres undefined),2.6%,nt,nt,5%
CCSc1nnc(C)n1-c1ccc(C(=O)O)cc1,-0.9%,-3,0%,0%
CC(Oc1ccccc1)C(=O)N1CCN=C1SCc1ccccc1 (centres undefined),-5.6%,-4,-1%,-8%

High-throughput results: PubChem, National Center for Advancing Translational Sciences (NCATS)
